p53 nuclei: nuclear p53 accumulation, HPV+ cells – imaging, p53-positive nuclei imaging, 24 h, 48 h (AID 1508601); p53-positive nuclei, normalised, % at 11 µM unless noted; p53-positive nuclei imaging, 48 h; stronger effect = higher value; some inactives read as strong as hits; 5,700 tested, 1% active;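 active means mean of two plates above 50% at 24 h or at 48 h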;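 further: HPV-positive HeLa cells with a fluorescent p53 stability reporter; 0% = vehicle and 100% = proteasome inhibitor control; doses worked out from stocks diluted about 900-fold with the highest of each compound shown; many of its hits are not listed in these tables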
p53 nuclei cells 24 h: recorded beside p53 nuclei, whose call it bears; nuclei count, normalised, %; measured here: cell number at 24 h;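 100% = vehicle wells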
p53 nuclei p53 24 h: recorded beside p53 nuclei, whose call it bears; p53-positive nuclei, normalised, %; measured here: p53 positive nuclei at 24 h;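 0% = vehicle and 100% = positive control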
p53 nuclei cells 48 h: second read-out of p53 nuclei, no call of its own (marks repeat the call); nuclei count, normalised, %; measured here: cell number at 48 h;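 100% = vehicle wells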
* marks the source's active call; other numbers are inactive results; [ ] = another dose, or the depositor's remark. Not all compounds are listed; rates above refer to the full screens.

SMILES	p53 nuclei	p53 nuclei cells 24 h	p53 nuclei p53 24 h	p53 nuclei cells 48 h
CCC(C)C(NC(=O)C(C(C)CC)N(C)C(C)=O)C(=O)NC(C(=O)NC(CC(C)C)C(=O)[C@@]1(C)CO1)C(C)O (some centres undefined)	106.0*	45.3*	124.5*	35.1*
c1nc2nc(Nc3ccc(N4CCOCC4)cc3)nc(NC3CCCCC3)c2[nH]1	0.7	44.4	0.5	29.0
COC1C=CO[C@@]2(C)Oc3c(C)c(O)c4c(O)c(c(C=NN5CCN(C)CC5)c(O)c4c3C2=O)NC(=O)C(C)=CC=CC(C)C(O)C(C)C(O)C(C)[C@@H](OC(C)=O)C1C (some centres undefined)	-0.1	102.8	0.0	113.8
OCC1OC(O)CC(O)C1O (centres undefined)	0.2	106.5	-0.1	111.3
CC(O)[C@H]1C(=O)N2C(C(=O)OCOC(=O)C(C)(C)C)=C(SC3CN(C4=NCCS4)C3)C(C)[C@@H]12 (some centres undefined)	0.0[3.7 µM]	105.9	-0.3	100.8
Cc1onc(C(=O)N2CCN(C(c3ccc(Cl)cc3)c3ccc(Cl)cc3)CC2)c1[N+](=O)[O-]	1.8	47.6	2.6	43.6
O=C1C(Cc2ccc(O)cc2)N2C(=O)CCN(C(=O)NCc3ccccc3)C2CN1Cc1cccc2ccccc12 (centres undefined)	-0.4	96.5	-0.1	94.3
CN1CCN(CCCN2c3ccccc3Sc3ccc(C(F)(F)F)cc32)CC1	0.0[3.7 µM]	100.8	-0.1	100.6
COC(=O)[C@]12CCC(C)(C)C[C@@H]1[C@@H]1C(=O)C=C3[C@]4(C)C=C(C#N)C(=O)C(C)(C)[C@@H]4CC[C@@]3(C)[C@]1(C)CC2	79.7*[3.7 µM]	36.3*	88.9*	29.9*
Cc1[nH]nc(C(F)(F)F)c1Cc1sc2c(c1C(=O)N1C[C@](C)(O)CO1)c(=O)n(C)c(=O)n2C(C)C	0.0	106.5	0.1	111.0
O=C(Nc1cc(C(F)(F)F)ccc1N1CCCCC1)c1ccncc1	0.0[3.7 µM]	116.6	-0.3	108.3
O=C(CCCCCCC(=O)Nc1ccccc1)NO	27.2	60.7	32.1	39.7
O=C(O)C1CC1C(=O)c1ccc(Cl)c(Cl)c1 (centres undefined)	-0.2	110.5	-0.2	108.8
N#CSc1cc(SC#N)c(N)nc1N	46.6*	45.2*	76.7*	21.8*
CCOC(=O)NCCCC(=O)NCCc1ccccc1	-0.1	100.9	-0.1	101.4
O=C(Nc1cccc(Nc2ncc(Br)c(NCCc3cnc[nH]3)n2)c1)N1CCCC1	0.2	42.0	0.3	24.8
C#CCNC1CCc2ccccc21 (centres undefined)	-0.3[3.7 µM]	104.6	-0.5	101.3

Five compounds from above, arranged by SMILES length, high to low:
SMILES	p53 nuclei	p53 nuclei cells 24 h	p53 nuclei p53 24 h	p53 nuclei cells 48 h
CC(O)[C@H]1C(=O)N2C(C(=O)OCOC(=O)C(C)(C)C)=C(SC3CN(C4=NCCS4)C3)C(C)[C@@H]12 (some centres undefined)	0.0[3.7 µM]	105.9	-0.3	100.8
Cc1[nH]nc(C(F)(F)F)c1Cc1sc2c(c1C(=O)N1C[C@](C)(O)CO1)c(=O)n(C)c(=O)n2C(C)C	0.0	106.5	0.1	111.0
Cc1onc(C(=O)N2CCN(C(c3ccc(Cl)cc3)c3ccc(Cl)cc3)CC2)c1[N+](=O)[O-]	1.8	47.6	2.6	43.6
CN1CCN(CCCN2c3ccccc3Sc3ccc(C(F)(F)F)cc32)CC1	0.0[3.7 µM]	100.8	-0.1	100.6
O=C(CCCCCCC(=O)Nc1ccccc1)NO	27.2	60.7	32.1	39.7

4 successive entries out of the list so far, for reference:
SMILES	p53 nuclei	p53 nuclei cells 24 h	p53 nuclei p53 24 h	p53 nuclei cells 48 h
O=C(CCCCCCC(=O)Nc1ccccc1)NO	27.2	60.7	32.1	39.7
O=C(O)C1CC1C(=O)c1ccc(Cl)c(Cl)c1 (centres undefined)	-0.2	110.5	-0.2	108.8
N#CSc1cc(SC#N)c(N)nc1N	46.6*	45.2*	76.7*	21.8*
CCOC(=O)NCCCC(=O)NCCc1ccccc1	-0.1	100.9	-0.1	101.4

Screening data deposited in PubChem BioAssay by ICCB-Longwood Screening Facility, Harvard Medical School.
